Compound activity deposited in PubChem BioAssay by National Center for Advancing Translational Sciences (NCATS).
miR-21 reporter = raises the signal of a miR-21 reporter. AID 2288. HeLa miR-21 FLuc reporter, luciferase, 48 h. Potency, µM (highest dose often 38.3 µM), inactives show at the highest dose reporter change, positive = more light. 340,000 tested, under 10 active; active = well fitted rising curve with a large enough effect; inconclusive = small, poorly fitted or top-dose-only effect; inactive = no such curve, though single readings can be large or run the other way;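 also: % of control where 0% means no effect; miR-21 action dims this reporter so a rising signal means less miR-21 action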
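HeLa cells endogenously expressing miR-21, stably carrying CMV-driven firefly luciferase with a downstream miR-21 binding site, 2000 cells/well. Titrations up to approximately 40 uM, 48 hours; luciferase luminescence read.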
The depositor's hits bear a star; ? = inconclusive; [ ] = remark or other dose. The list is partial. The share of hits here may be higher or lower than overall.

SMILES | miR-21 reporter
Cc1ccc(S(=O)(=O)NCCc2sc3nc(-c4ccccc4)nn3c2C)cc1C | 0%
Cc1ccc(S(=O)(=O)c2nnn3c2nc(NCc2ccccc2Cl)c2sccc23)cc1 | 2%
Cc1ccc(CCNC(=O)CCn2nc(-c3ccc(C)cc3)ccc2=O)cc1 | -10%
COc1cc(NS(=O)(=O)c2cc3c(cc2C)N(C)CCO3)cc(OC)c1OC | -3%
CCOc1ccc(Nc2nc(N)c(C(=O)c3ccccc3Cl)s2)cc1 | 24%
NS(=O)(=O)c1ccc(CCNC(=O)Cn2c(-c3cccs3)cc3ccccc32)cc1 | 28%
Cc1cccc(C)c1NC(=O)Cn1c(=O)n(Cc2ccc(C(=O)NCc3ccco3)cc2)c(=O)c2sccc21 | ?
Cc1cccc(CSc2ccc3nnc(CCNS(=O)(=O)c4ccccc4)n3n2)c1 | -7%
O=C1OC(C(=O)Nc2cc(C(F)(F)F)ccc2Cl)Cc2ccccc21 (centres undefined) | -4%
CCOc1ccc(NC(=O)C2Cc3ccccc3N2C(=O)c2ccccc2)cc1 (centres undefined) | 0%
O=C(CCS(=O)(=O)c1cc(Br)cc2c1N(C(=O)C1CC1)CC2)Nc1ccc(F)cc1 | -7%
Cc1oc2c(c1C(=O)Nc1ccccc1Br)C1=NCCN1C=N2 | -1%
COc1ccc(CNC(=O)CSc2nc3ccccc3nc2Cc2ccccc2OC)cc1 | -5%
CC1(c2ccc(Cl)cc2)CC(C)(C)N(C(=O)c2ccccc2)c2ccccc21 (centres undefined) | 13%
COc1ccc(-n2ccnc(NCCc3ccccc3)c2=O)cc1OC | -2%
CCOC(=O)c1cccc(NC(=O)CCS(=O)(=O)c2ccc3c(c2)CC(=O)N3C)c1 | 1%
CCOC(=O)COc1ccc(-c2nnn(CC(=O)Nc3ccccc3)n2)cc1 | -2%
Cc1oc2ncn(CC(C)C)c(=O)c2c1C(=O)NCCCN1CCC(C)CC1 | 6%
O=C(NCCc1ccccc1)c1c2c(nc3ccccc13)C(=O)N(C1CCCCC1)C2 | -11%
Cc1cc(C)cc(NC(=O)CSc2oc(-c3ccco3)nc2S(=O)(=O)c2ccccc2)c1 | 7%
CCOc1ccc(/C=C/c2nc(C#N)c(N3CCN(c4ccc(OC)cc4)CC3)o2)cc1 | 2%
CCn1nc(C)c(CCN(C)C(=O)Nc2cc(Cl)c(OC)cc2OC)c1C | -5%
O=C(COCc1cc(-c2cccs2)on1)Nc1cccc(O)c1 | -1%
CCOc1ccc(N(CC)C(=O)c2cc3c(s2)-c2ccccc2OC3)cc1 | 13%
Cc1cccc(C(=O)NCC(=O)OCc2cc(=O)n3nc(C4CC4)sc3n2)c1 | -3%
CC(C)NC(=O)C1CCN(C(=O)N2CCOc3ccc(Cl)cc32)CC1 | -8%
CCN(CC)CCNC(=O)c1ccc(-n2c(-c3ccccc3)cc3c2CCCC3)cc1 | 26%
CC(C)OCCCNC(=O)c1ccc2c(c1)N(Cc1c(F)cccc1Cl)C(=O)c1ccccc1S2 | 19%
COc1ccc(-c2nc(SCC(=O)Nc3ccc4c(c3)OCCO4)c(-c3ccc(C)cc3)[nH]2)cc1OC | 18%
CCN(CC)c1cc(C)c2cc(NC(=O)c3cccc(OC)c3)ccc2n1 | 19%
Cc1ccc(CNC(=O)CCCCCn2c(=O)c3sccc3n(CC(=O)Nc3ccc(C)c(F)c3)c2=O)cc1 | -9%
Cc1cccc(-n2ncc(C(=O)N3CCN(c4ccc(Cl)cc4)CC3)c2C2CCN(C(=O)OC(C)(C)C)CC2)c1 | -1%
COC(=O)CNC(=O)N1CCN(S(=O)(=O)c2ccc3c(ccn3C)c2)CC1 | 1%
CCN(CC)c1ccc2cc(-c3nc4sc5c(c4c(=O)[nH]3)CCC(C(C)(C)C)C5)c(=O)oc2c1 (centres undefined) | -18%
COc1ccc2c(C)c(CCC(=O)NCc3cccc(Cl)c3)c(=O)oc2c1 | -10%
Cc1ccc(Cl)cc1N1CCN(C(=O)c2ccc(CS(=O)(=O)c3ccccc3C)o2)CC1 | ?
CCN(CC)C(=O)c1sc2c(c1C)c(=O)n(-c1ccc(OC)cc1OC)c(=O)n2CC(=O)Nc1ccccc1 | -3%
O=C(CCCCCn1c(=O)c2sccc2n(Cc2ccccc2Cl)c1=O)NCc1ccc2c(c1)OCO2 | -3%
CC(=O)c1cccc(NC(=O)CCn2nc(C)c(S(=O)(=O)N3CCCCC3)c2C)c1 | ?
O=C1CN(C(=O)c2c(F)cccc2Cl)C(c2ccc(F)cc2)c2cc(Br)ccc2N1 (centres undefined) | ?
COc1ccc(C)cc1NC(=O)CCS(=O)(=O)c1cc2c3c(c1)CCN3C(=O)CC2 | -1%
O=C(NCCc1nc2ccccc2n1Cc1ccc(F)cc1)c1ccco1 | 3%
CC(NC(=O)c1cccc(Nc2nc3ccccc3n3nnnc23)c1)c1ccccc1 (centres undefined) | -4%
CCc1ccc(NC(=O)C2=CC(c3ccc4c(c3)OCO4)=NS(=O)(=O)N2C)cc1 | 0%
COc1ccc(/C=C\c2onc(C)c2S(=O)(=O)N2CCC(C(=O)Nc3cccc(OC)c3)CC2)cc1 | ?
COc1ccccc1NC(=O)C1=C(C)Nc2nc(SC)nn2C1c1ccccc1Cl (centres undefined) | -2%
Cc1ccc(N2CCN(C(=O)c3cn(C)c4ccc(S(=O)(=O)N5CCCC5)cc4c3=O)CC2C)cc1 (centres undefined) | -3%
Cc1cc(-c2ccc(C)c(S(=O)(=O)NCc3cccs3)c2)on1 | 23%
COc1ccc(N2CCN(C(CNC(=O)c3cccc(OC)c3)c3cccnc3)CC2)cc1 (centres undefined) | -17%
CCc1ccc(NC(=O)Cn2c(=O)n(Cc3ccc(C)cc3)c(=O)c3cccnc32)cc1 | 1%
Cc1nn(C(C)(C)C)c(OC(=O)c2cccc(F)c2)c1Sc1ccccc1 | 8%
CC(C)(C)OC(=O)N1CCC(c2c(C(=O)N3CCN(c4ncccn4)CC3)cnn2-c2ccccc2)CC1 | -2%
COc1ccc(Cl)cc1NC(=O)CN(c1cc(C)cc(C)c1)S(=O)(=O)c1c(C)n[nH]c1C | ?
CCCCNc1nc2c(-c3cccc(C)c3)nnn2c2ccccc12 | -4%
CC(C)NC(=O)Cn1c(=O)nc(-c2ccccc2F)c2cc(Cl)ccc21 | 7%
COc1ccc(C2CC(=O)Nc3c2c(C)nn3-c2nc(C)cc(C)n2)c(OC)c1OC (centres undefined) | -1%
Cc1ccc(-n2ccnc(NCCc3ccccc3)c2=O)cc1C | -20%
Cc1ccc(OCC(=O)NCC2(N3CCOCC3)CCCCC2)cc1C | ?
COc1cccc(NC(=O)Cn2c(=O)n(CCc3ccccc3)c(=O)c3c4c(sc32)CN(C(C)=O)CC4)c1 | 11%
CCCCCNC(=O)CCn1c(=O)[nH]c2ccccc2c1=O | 1%

Following part.
SMILES | miR-21 reporter
O=C(Nc1ccc(F)cc1)c1cccn1-c1nnc(N2CCCCC2)s1 | -27%
CCCSc1ncc(Cl)c(C(=O)Nc2sc3c(c2C(=O)NCCOC)CCCC3)n1 | 1%
O=C(CSc1nc2c([nH]c3ccccc32)c(=O)n1-c1ccc(Cl)cc1)N1CCc2ccccc21 | -15%
Cc1cccc(Oc2nc3c(C)cccn3c(=O)c2/C=C(\C#N)c2nc3ccccc3s2)c1 | -17%
O=C(NCCCN1CCN(c2ccccc2)CC1)c1nnc(Cc2c(F)cccc2Cl)o1 | -2%
CCCNC(=O)Cn1ncc2c3ccccc3n(CCC)c2c1=O | -7%
Cc1ccc2ncc(C(=O)NC(C)c3ccccc3)c(=O)n2c1 (centres undefined) | -2%
CCOc1ccc2nc(N3CCC(C(=O)Nc4cc(C)ccc4C)CC3)sc2c1 | -15%
Cc1ccc(C)c(NC2=C(c3ccc(C(F)(F)F)cc3)C(=O)c3ccccc32)c1 | -3%
COc1ccc(C(=O)c2c(N)c(C(=O)Nc3cccc(OC)c3)c3ccccn23)cc1 | -7%
CCOc1cc(OCC)cc(C(=O)Nc2cccc(-c3nc4ccccc4[nH]3)c2)c1 | 7%
CCC1CN(C(=O)Nc2cccc3c2CCCC3)c2ccccc2O1 (centres undefined) | -2%
CC1=C(C(=O)Nc2ccccc2)C(CC(C)C)n2nc(SCc3ccccc3C)nc2N1 (centres undefined) | 0%
CCCCc1nn2c(=O)cc(COC(=O)c3cccc(NC(=O)c4cccc(Cl)c4)c3)nc2s1 | 3%
CC(C)(C)c1ccc(C(=O)NCC(c2cccnc2)N2CCc3ccccc3C2)cc1 (centres undefined) | -46%
COc1ccc(C)cc1NC(=O)CSc1ncc2c(n1)-c1ccc(Cl)cc1N(Cc1ccccc1)S2(=O)=O | 10%
Cc1cccc(Nc2nc(N)nc(N)c2S(=O)(=O)c2ccccc2)c1 | 2%
CCOc1ccc(C2=CC(c3cccc(Br)c3)n3c(nc4ccccc43)N2)cc1Cl (centres undefined) | -15%
Cc1cccc(N2CCN(CCCNc3ncnc4onc(-c5ccc(F)cc5)c34)CC2C)c1 (centres undefined) | -3%
CCN1CCN(c2ncc3c(n2)CCN(Cc2cc(F)cc(F)c2)C3)CC1 | 23%
COc1ccc(-c2nnc(SCC(=O)NC3CCCC3)nc2-c2ccc(OC)c(OC)c2)cc1OC | -1%
N#Cc1cccc(NC(=O)C2CCN(c3ncccn3)CC2)c1 | 1%
CCOC(=O)c1cnc2c(C)cc(C)cc2c1NCCc1ccc(OC)c(OC)c1 | 0%
CN(C)S(=O)(=O)N(CC(=O)NCCSc1ccccc1)c1ccccc1 | -5%
COc1ccc(C(=O)Nc2ccc3oc(-c4cccc5c(Br)cccc45)nc3c2)cc1 | -4%
CCCS(=O)(=O)N1CC(=O)N(c2ccc(C)c(Cl)c2)C(C)(C(=O)NC2CCCCCC2)C1 (centres undefined) | -4%
COC(=O)C(CCSC)Nc1ncnc2onc(-c3ccc(F)cc3)c12 (centres undefined) | -4%
O=C(Nc1ccc(F)cc1)c1cc2cc3ccc(Cl)cc3nc2o1 | -4%
CC1CN(C(=O)N2CCC(C(=O)NCc3ccco3)CC2)c2cc(Cl)ccc2O1 (centres undefined) | -6%
Cc1ccc(Cl)cc1N1CCN(CCCNc2ncnc3onc(-c4ccc(F)cc4)c23)CC1 | -2%

13 structures out of the list, arranged by molar mass, ascending:
SMILES | miR-21 reporter
N#Cc1cccc(NC(=O)C2CCN(c3ncccn3)CC2)c1 | 1%
O=C(Nc1ccc(F)cc1)c1cc2cc3ccc(Cl)cc3nc2o1 | -4%
Cc1cccc(Nc2nc(N)nc(N)c2S(=O)(=O)c2ccccc2)c1 | 2%
CCN1CCN(c2ncc3c(n2)CCN(Cc2cc(F)cc(F)c2)C3)CC1 | 23%
COC(=O)C(CCSC)Nc1ncnc2onc(-c3ccc(F)cc3)c12 (centres undefined) | -4%
CN(C)S(=O)(=O)N(CC(=O)NCCSc1ccccc1)c1ccccc1 | -5%
CCOC(=O)c1cnc2c(C)cc(C)cc2c1NCCc1ccc(OC)c(OC)c1 | 0%
CC(C)(C)c1ccc(C(=O)NCC(c2cccnc2)N2CCc3ccccc3C2)cc1 (centres undefined) | -46%
CC1CN(C(=O)N2CCC(C(=O)NCc3ccco3)CC2)c2cc(Cl)ccc2O1 (centres undefined) | -6%
COc1ccc(C(=O)Nc2ccc3oc(-c4cccc5c(Br)cccc45)nc3c2)cc1 | -4%
CCOc1ccc(C2=CC(c3cccc(Br)c3)n3c(nc4ccccc43)N2)cc1Cl (centres undefined) | -15%
CCCS(=O)(=O)N1CC(=O)N(c2ccc(C)c(Cl)c2)C(C)(C(=O)NC2CCCCCC2)C1 (centres undefined) | -4%
COc1ccc(-c2nnc(SCC(=O)NC3CCCC3)nc2-c2ccc(OC)c(OC)c2)cc1OC | -1%

(list continues)
SMILES | miR-21 reporter
Cc1ccc(S(=O)(=O)C(CNC(=O)C(=O)NCCc2ccc(Cl)cc2)c2cccs2)cc1 (centres undefined) | 5%
COc1ccc(-n2cc(C(=O)NCc3ccccc3Cl)c3ccccc3c2=O)cc1 | -11%
CCc1ccc(CN(Cc2ccco2)C(=O)c2cc(-c3ccc(C)c(F)c3)on2)cc1 | 25%
COc1cc(OC)c(NC(=O)Cn2cnc3nc4c(cc3c2=O)CCCC4)cc1Cl | -2%
Cc1ccc(CCNS(=O)(=O)c2ccc3c(c2)CCN3C(=O)CCC(=O)O)cc1 | -4%
O=S(=O)(NCc1cccs1)c1ccc(Br)s1 | -1%
Cc1cccc(CSc2ncc(Cl)c(C(=O)Nc3nnc(C)s3)n2)c1 | -1%
Cc1cc(NC(c2nnc(-c3ccccc3)o2)c2ccccc2F)ccc1Br (centres undefined) | ?
Cc1ccccc1C1c2[nH]c3ccccc3c2C[C@H]2C(=O)N(C3CCN(Cc4ccccc4)CC3)CC(=O)N12 (some centres undefined) | 18%
CCOC(=O)c1ccccc1NC(=O)N(C)CCc1c(C)nn(CC)c1C | -36%
COc1cc2c(cc1OC)[C@@H]1O[C@](CCCCN3C(=O)c4ccccc4C3=O)(C2)Oc2cc(C)n(-c3ccccc3)c(=O)c21 | -5%[7.66 µM]
CCc1ccccc1NC(=O)C1CCN(C2=NS(=O)(=O)C(c3ccc(C)c(C)c3)=C2C)CC1 | 5%
CCNC(=O)CC1C(=O)N(c2ccc(F)cc2)C(=O)N1Cc1ccc(C)cc1 (centres undefined) | 3%
O=S(=O)(c1ccccc1)c1nc(-c2ccccc2)oc1N1CCN(c2cccc(Cl)c2)CC1 | 6%
O=c1cc2nc(-c3cccs3)nc(SCCOc3ccc(Cl)cc3)n2[nH]1 | -24%
Cc1ccc(C)c(CSc2nnc3[nH]c(=O)cc(C)n23)c1 | -3%
COC(=O)Cn1nc(C)c2c(C)n(-c3ccccc3)nc2c1=O | -3%
